High-throughput results as filed in PubChem.
CtBP-E1A blk – inhibitors of CtBP/E1A interaction; AlphaScreen GST-E1A/His-CtBP binding, 1536-well; active compounds read low; control for the full effect not named in the record; activity change, % (no concentration beside the values); hit rate 0.49% among 340,000; in the data active means activity change below about -65%; inconclusive means about -30% to -65%; inactive means above about -30%; further: on the % scale 0 is the no-effect control and ±100 the full control effect
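Homogeneous bead-based format: GST-tagged E1A captured on glutathione donor beads, His-tagged CtBP on nickel acceptor beads; compounds precede bead addition by 2 h at 37 °C.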
ClpP mod – qHTS Assay for Activators of ClpP; ATP-dependent Clp protease proteolytic subunit (Bacillus subtilis (strain 168)), P80244; purified B. subtilis ClpP, FRET peptide cleavage, 20 min; Potency, µM (top dose mostly 57.5 µM), for the others: at the top dose activity change, negative = active; hit rate 1.9% among 340,000; active = well fitted falling curve with a large enough effect; inconclusive = small, poorly fitted or top-dose-only effect; inactive = no such curve, though single readings can be large or run the other way; further: potency means the concentration at half of the fitted maximal effect; the source files actives as falling curves though it sought activators and does not explain the sign; nearly all actives have a fitted effect of over 65% in size; many hits overshoot -100%
Target sequence (P80244 whole entry, looked up): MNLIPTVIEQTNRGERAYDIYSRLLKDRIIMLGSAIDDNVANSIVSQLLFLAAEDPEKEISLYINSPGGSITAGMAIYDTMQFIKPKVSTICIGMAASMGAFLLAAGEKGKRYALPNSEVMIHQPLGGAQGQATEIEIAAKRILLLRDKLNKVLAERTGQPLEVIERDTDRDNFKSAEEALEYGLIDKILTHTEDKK
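FRET quenching reversal measured ClpP activation: 10 microg/mL B. subtilis ClpP at pH 8 with the FRET-FV decapeptide, read at 430 nm after 320 nm excitation. The 20-min minus 0-min signal was scaled between DMSO/no-enzyme wells and ADEP (5.8 microM final).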
* = called active by the depositor; ? = inconclusive.

Under each structure – CtBP-E1A blk | ClpP mod
> Nc1ncnc2c1ncn2[C@@H]1O[C@H](C(=O)NS(=O)(=O)c2ccccc2[N+](=O)[O-])[C@@H](O)[C@H]1O
    7 | -0.8%
> CC(C)c1cc(Cn2c3ccccc3c(=O)n2C(C)Cn2cc(-c3ccccc3)nn2)on1 (stereo unspecified)
    4 | 4.3%
> O=C1NC[C@H](Cc2ccc(O)cc2)N(C[C@H]2CCCN2C[C@H](Cc2ccc(O)cc2)N2C[C@H](Cc3ccc(O)cc3)N(CCc3ccccc3)C(=O)C2=O)C1=O
    -3 | -1.0%
> CCOC(=O)C1(C)CCN1C(=O)COc1ccc(C(C)(C)C)cc1 (stereo unspecified)
    1 | 0.3%
> C(=C\c1ccccc1)/CN1CCN(C(c2cccs2)c2nnnn2-c2ccc3c(c2)OCCO3)CC1 (stereo unspecified)
    ? | -0.8%
> CC(=O)Nc1ccc(NC(=O)c2cc(-c3cc(F)ccc3OCC3CCCO3)n[nH]2)cc1 (stereo unspecified)
    -2 | 1.3%
> CC1(C(=O)NS(=O)(=O)c2cccs2)CCN1C(=O)CC1CCCC1 (stereo unspecified)
    8 | 1.5%
> COc1ccc(C(C)(NC(C)=O)c2nc(-c3cccc(C#N)c3)cs2)cc1 (stereo unspecified)
    0 | 1.5%
> NC(Cc1ccc(Cl)cc1)c1csc(Nc2cc(NCCCO)ncn2)n1 (stereo unspecified)
    -78* | 1.7%
> COC(=O)[C@]12CCCCC=C1N(Cc1cccc3ccccc13)C(=O)[C@H](CC(=O)NCc1ccc(OC)c(OC)c1)C2
    -10 | -6.1%
> CC1=C(C(=O)N(C(C)C)C(C)C)CC(CC(=O)NCCc2ccccn2)C(=O)N1Cc1ccc(C(C)(C)C)cc1 (stereo unspecified)
    -1 | 0.9%
> CN1CCN(C2CN(Cc3cn(Cc4cccc(Cl)c4)nn3)S(=O)(=O)C2)CC1 (stereo unspecified)
    0 | -1.6%
> CCNC(=O)C1(C)CCCN(C(=O)c2ccc(C(F)(F)F)nc2C)C1 (stereo unspecified)
    -8 | -2.4%
> CSCCC(c1nc2ccccc2[nH]1)n1c(=O)c(-c2ccco2)nc2ccccc21 (stereo unspecified)
    -13 | 4.6%
> CN(C)c1ccc(CNC(=O)/C=C/[C@H]2O[C@@H](n3ccc(=O)[nH]c3=O)[C@H](O)[C@@H]2O)cc1
    4 | 2.3%
> O=c1c(-c2ccco2)nc2ccccc2n1C(CCc1ccccc1)c1nc2ccccc2[nH]1 (stereo unspecified)
    -5 | ?
> Cc1ccc(N2CCN(C(C(=O)Nc3c(C)cccc3C)c3cccc(F)c3)CC2)cc1 (stereo unspecified)
    -15 | -0.6%
> CC(C)(C)c1ccc2cc(F)cc(F)c2n1
    8 | 0.0%
> O=C(NC(c1ccccc1)c1ccsc1)C1CCN(Cc2ccc(Cl)c(Cl)c2)CC1 (stereo unspecified)
    4 | -4.4%
> COc1cccc(-c2nc3nc(C)cc(C)n3c2NC2CCCC2)c1
    -17 | -13%
> CCc1nc2c(OCC(=O)N3CCOCC3)cccn2c1N(C)C(=O)COc1ccccc1
    -2 | -0.8%
> NC(c1csc(Nc2ccc(C(=O)NCCCO)cn2)n1)c1ccccc1Cl (stereo unspecified)
    -77* | ?
> Cc1ccccc1C(c1ncccc1C)N(C)C(=O)C1CCN(CCOc2ccc(Cl)cc2Cl)CC1 (stereo unspecified)
    -24 | -2.7%
> CC(=O)C(=Cc1cccc(C#N)c1)C(=O)c1ccccc1
    -12 | -4.8%
> CC(C)S(=O)(=O)N1CCCC(c2cc(C(=O)NCc3cccnc3)no2)C1 (stereo unspecified)
    1 | 1.8%
> CC1(C(=O)N2CCCCC2)CCN1C(=O)c1ccccc1CCc1ccccc1 (stereo unspecified)
    2 | -0.6%
> Cc1cc(O)ccc1-c1cccc2nccn12
    -7 | 4.9%
> CN1CCN(C(=O)c2cc3c(c(-c4cccc(-c5cc6ccccc6o5)c4)n2)[C@H](CCO)N(S(=O)C(C)(C)C)C3)CC1 (stereo partly specified)
    -4 | -5.0%
> COc1ccc(NC(=O)c2ccc(-c3c(C)noc3C)c3ccoc23)cc1
    ? | -2.3%
> Cc1c(C(=O)NCc2ccco2)sc(=O)n1Cc1ccc(S(C)(=O)=O)cc1
    3 | -0.7%

One compound at a time, as listed above. Screens in order: CtBP-E1A blk | ClpP mod
`COc1ccc(NC(=O)c2ccc(-c3c(C)noc3C)c3ccoc23)cc1` in the list: ? | -2.3%
`CC1(C(=O)N2CCCCC2)CCN1C(=O)c1ccccc1CCc1ccccc1` (stereo unspecified) in the list: 2 | -0.6%
`O=c1c(-c2ccco2)nc2ccccc2n1C(CCc1ccccc1)c1nc2ccccc2[nH]1` (stereo unspecified) in the list: -5 | ?

Continuation:
Under each structure – CtBP-E1A blk | ClpP mod
> COC[C@@H]1CCCN1[C@H]1CS(=O)(=O)N[C@@H]1COCc1ccccc1
    4 | -0.2%
> CN1OC[C@@H]2CN(S(=O)(=O)c3ccccc3)[C@H](c3ccc(N4CCCCC4)cc3)C[C@@H]21
    0 | -2.6%
> CN(Cc1ccc(Cl)c(Cl)c1)C(c1cc2ccccc2o1)c1nnnn1C(C)(C)C (stereo unspecified)
    -2 | -0.6%
> COc1ccc(-c2cc(C(=O)NCc3ccc(F)cc3)[nH]n2)c(C)c1
    -3 | 1.2%
> C[C@@H]1COc2cccc(N3CCN(Cc4ccccc4F)CC3)c2S(=O)(=O)N1
    -22 | -5.6%
> CC(C)C[C@H](NC(=O)/C=C/[C@H]1O[C@@H](n2ccc(=O)[nH]c2=O)[C@H](O)[C@@H]1O)C(=O)O
    -6 | -2.3%
> CC(C)n1nnnc1C1c2ccccc2C(=O)N1Cc1ccco1 (stereo unspecified)
    0 | 1.3%
> CCCCC(=O)N(C)c1c(C)nc2ccc(C(=O)NCCN(C)C)cn12
    0 | -12%
> COc1cccc(CNC(=O)C2(C)CCCN2C(=O)C(C)C)c1 (stereo unspecified)
    3 | 1.4%
> N#CCc1ccc(OCCCN2CCC(C(O)(c3ccccc3)c3ccccc3)CC2)cc1
    -25 | -2.3%
> CC(=O)Nc1cccc(Oc2nc(NC(C)C)nc3cc(-c4ccccc4)sc23)c1
    -6 | -25%
> CCOC1=CC2=C(C(=O)C(Cl)=CC2=O)[C@@H]2CN(S(=O)(=O)c3ccc(C)cc3)[C@@H](c3ccccc3)[C@H]12
    ? | -2.5%
> COc1ccc(-c2cc(NC=O)c3ncc(-c4ccc(OC)c(OC)c4)n3c2)cc1OC
    -30 | -24%
> COc1cccc(CN2CCC2(C)C(=O)Nc2ccc3c(c2)OCO3)c1F (stereo unspecified)
    -2 | 1.2%
> O=C(NCc1ccccc1)C(c1ccc(F)cc1)N1CCN(C(=O)C2CCCO2)CC1 (stereo unspecified)
    23 | -1.4%
> Cc1c(C(=O)NCc2ccc([N+](=O)[O-])cc2)sc(=O)n1Cc1ccc2c(c1)OCO2
    -11 | -4.6%
> Cn1c(-c2ccccc2)c(Sc2ccccc2)c2cc(-c3ccc4cc[nH]c4c3)ccc21
    0 | 4.8%
> CN1CCCC(C(=O)Nc2cccc(Cl)c2)CC1 (stereo unspecified)
    11 | -0.8%
> CNc1cncc(-c2cccc(C(C)=O)c2)n1
    -26 | -11%
> Cn1nc(C(C)(C)C)cc1N1C(=O)CCC1(C)C(=O)NCc1ccccc1 (stereo unspecified)
    3 | -1.5%
> COc1cccc(S(=O)(=O)Nc2ccc3c(c2)C(=O)N(C)C[C@H](OC)[C@H](C)CN(Cc2ccccc2F)[C@@H](C)CO3)c1
    -16 | -1.8%
> Cc1c(C(=O)NCc2ccccc2C(F)(F)F)sc(=O)n1Cc1ccccc1C#N
    -1 | 2.0%
> COCCN1C(=O)CSCC1(C)C(=O)NCc1ccccc1 (stereo unspecified)
    -21 | 1.6%
> CCCCC[C@@H]1CCCCC[C@H](O)C[C@@H](O)[C@@H](O)/C=C/C(=O)O1
    -5 | -3.4%
> CCCCC(=O)N(C)c1c(CC)nc2c(OCc3ccc(Cl)cc3Cl)cccn12
    -5 | -1.4%
> CCOC(=O)C1(C)CCN1C(=O)c1cccnc1Oc1ccccc1 (stereo unspecified)
    9 | -0.8%
> C[C@H]1CNC(=O)c2c(C(=O)N3CCN(C(=O)OC(C)(C)C)CC3)ncn21
    -14 | -13%
> Nc1[nH]c(C(=O)c2ccccc2)c(-c2ccccc2Br)c1C(=O)c1ccccc1
    0 | 16%
> c1ccc(-c2ccc3cnccc3n2)cc1
    2 | -0.6%
> COCc1cccc(-c2csc(C(C)(O)c3cccc(OC)c3)n2)c1 (stereo unspecified)
    6 | -1.5%

Part of the list above, in CSV form:
molecule,CtBP-E1A blk,ClpP mod
COc1cccc(CN2CCC2(C)C(=O)Nc2ccc3c(c2)OCO3)c1F (stereo unspecified),-2,1.2%
N#CCc1ccc(OCCCN2CCC(C(O)(c3ccccc3)c3ccccc3)CC2)cc1,-25,-2.3%
C[C@@H]1COc2cccc(N3CCN(Cc4ccccc4F)CC3)c2S(=O)(=O)N1,-22,-5.6%
CCOC(=O)C1(C)CCN1C(=O)c1cccnc1Oc1ccccc1 (stereo unspecified),9,-0.8%

Following part
Under each structure – CtBP-E1A blk | ClpP mod
> CN(Cc1ccccc1)C(=O)c1ccc2sc([C@@H]3O[C@H](CO)[C@H](O)[C@H](O)[C@H]3O)nc2c1
    9 | -2.6%
> CN1CCN(c2ncnc3c2ncn3[C@H]2CN(Cc3ccc(C(=O)O)cc3)C[C@@H](CO)O2)CC1
    12 | 1.6%
> CC(C)C[C@H]1CN(CCCC[C@H]2CNC(=O)C(=O)N2Cc2ccccc2)C(=O)C(=O)N1CC1CCCCC1
    1 | 1.4%
> FC(F)(F)c1ccccc1Cc1c(-c2cccc(Cl)c2)nc2ccc(Cl)cn12
    5 | -25%
> CCCNC(=O)c1cc(C2CCCCN2C(=O)OCC(C)C)on1 (stereo unspecified)
    0 | -3.0%
> Cc1cc(Br)cn2c(Cc3ccsc3)c(-c3ccc(Cl)cc3)nc12
    -5 | 0.0%
> COc1cc(CN2CCC(C(=O)NC(c3ccc(F)cc3)c3ncccc3C)CC2)cc(OC)c1 (stereo unspecified)
    -15 | 1.8%
> CCc1nc2ccc(C(=O)N3CCN(C)CC3)cn2c1N(CCC(C)C)CCN(C)C
    6 | -3.9%
> CN(Cc1ccccc1)Cc1cc(=O)oc2ccccc12
    4 | -7.9%
> O=C1Nc2ccccc2C(=O)N2c3ccccc3NC(=O)C12 (stereo unspecified)
    -5 | -0.8%
> CCN1C(=O)N2C[C@H]3CON(C)[C@H]3C[C@H]2c2ccccc21
    1 | -2.9%
> OCc1ccccc1-c1ccc2nccn2c1
    0 | -13%
> COc1cccc(-c2cnc(C(O)c3cccc(C)c3C)[nH]2)c1 (stereo unspecified)
    19 | -1.8%
> Cc1cc2nc(-c3nnnn3Cc3ccccc3)c(=O)[nH]c2cc1C
    7 | -26%
> CCc1nc2ccc(C(=O)NCC3CCCCC3)cn2c1N(C)Cc1nccs1
    -6 | -1.9%
> CC1(Br)C(Sc2ccccc2[N+](=O)[O-])=Nc2ccccc21 (stereo unspecified)
    -23 | -1.9%
> Cn1ccc2c(N3CCCC3)cc3c(c21)C1CCC3O1 (stereo unspecified)
    -20 | -9.7%
> C#CCNC(=O)C[C@@H]1C[C@@]2(C(=O)OC)CC(C)(C)CC=C2N(Cc2ccccc2)C1=O
    7 | 1.2%
> CCNC(=O)C1CCCN(C(=O)c2cccc(Cl)c2)CC1 (stereo unspecified)
    4 | -0.4%
> CC(=O)Nc1cccc(-c2csc(C(O)c3cccc(Cl)c3)n2)c1 (stereo unspecified)
    -5 | -2.7%
> O=C1c2ccccc2C(c2nnnn2-c2ccc3c(c2)OCCO3)N1CCc1ccc(O)cc1 (stereo unspecified)
    -2 | -1.0%
> COc1ccc(N2CCN(c3cc(C(=O)Nc4cc(OC)c(OC)c(OC)c4)ncn3)CC2)cc1OC
    -16 | 0.0%
> CC(=O)Nc1cccc(-c2ccnc3c2CC(C(=O)Nc2ccc(F)c(Cl)c2)O3)c1 (stereo unspecified)
    1 | -8.6%
> CC1(C(=O)NS(=O)(=O)c2cccc(Cl)c2)CCN1C(=O)CCc1ccccc1 (stereo unspecified)
    0 | -1.4%
> O=S1(=O)CC(N2CCSCC2)CN1Cc1cn(Cc2ccc(F)cc2)nn1 (stereo unspecified)
    -4 | -2.6%
> Cc1ccc(S(=O)(=O)N2C[C@H]3[C@H]4C(=O)N(Cc5ccccc5)C(=O)[C@H]4CC(=O)[C@H]3[C@@H]2c2ccccc2)cc1
    1 | -3.3%
> O=C(Nc1c(-c2ccccc2)[nH][nH]c1=O)c1ccc2ccccc2c1
    -1 | -2.0%
> Cc1nc2ccc(C(=O)N3CCC(O)(Cc4ccccc4)CC3)cn2c1N(C)C(=O)CCc1ccccc1
    -10 | -13%
> CC(=O)Nc1ccc(NC(=O)C2(C)Cc3c(-c4cccc(C(N)=O)c4)ccnc3O2)cc1 (stereo unspecified)
    -1 | 2.0%
> O=C(NC1CCCC1)C1c2ccccc2OCC(=O)N1Cc1ccc2c(c1)OCO2 (stereo unspecified)
    -11 | -1.5%
> COC(=O)[C@@]12C[C@@H](CC(=O)N3CCOCC3)C(=O)N(Cc3ccccc3)C1=CCC(C)(C)C2
    10 | 1.3%
> CCCCN(C)c1c(C)nc2ccc(C(=O)NCc3cccs3)cn12
    -7 | -5.9%

An excerpt; the hit share may differ from the screen's.
